# Compound activity deposited in PubChem BioAssay by National Center for Advancing Translational Sciences (NCATS).
# 2A Renilla: lowers the Renilla signal of an FMDV 2A StopGo reporter; HEK cells with a luciferase reporter of 2A StopGo recoding; Potency, µM (doses to about 57.5 µM), without a hit: at the top dose signal change, negative = less light; 120,000 compounds, 0.32% hits; active means well fitted falling curve with a large enough effect; inconclusive means small, poorly fitted or top-dose-only effect; inactive means no such curve, though single readings can be large or run the other way; also: nearly all actives have a fitted effect of over 55% in size; overnight with compound
# 2A firefly: FMDV 2A StopGo reporter, firefly signal | AID 1745856 | HEK cells with a luciferase reporter of 2A StopGo recoding | 120,000 compounds, 0.23% hits | Potency, µM (titrated, usually from 57.5 µM), for inactives: at the top dose signal change, negative = less light; active = well fitted falling curve with a large enough effect; inconclusive = small, poorly fitted or top-dose-only effect; inactive = no such curve, though single readings can be large or run the other way; also: nearly all actives have a fitted effect of over 60% in size; overnight with compound
# The depositor's hits bear a star; ? = inconclusive; & = joins results of further samples; [ ] = dose if it differs, or a comment. % is scaled to controls: 0 for no effect and ±100 for the full control effect; potency is read from the fitted curve at half-maximal effect. Rows were taken by chance; overall some 0.55% were active at least once.
# Screens in order: 2A Renilla, 2A firefly
[1] CCc1cccc2c(C(=O)COC(=O)c3ccc(C)s3)c[nH]c12
 : 3%, 91%[activator]
[2] CC(C)C(NC(=O)c1n[nH]c(=O)c2ccccc12)c1ccc(C(C)(C)C)cc1 (stereo not given)
 : 3%, -1%
[3] CCc1ccc(-n2nnc(-c3nc(-c4ccccc4)no3)c2C)cc1
 : -11%, 58%[activator]
[4] Cc1cccc(C)c1NC(=O)c1oc2c(c1C)-c1nn(Cc3ccccc3)cc1CC2
 : -24%, -4%
[5] N#Cc1nc(COc2ccccc2F)oc1NCc1ccc2c(c1)OCO2
 : 19%, 102%[activator]
[6] CC(=O)Nc1ccc(S(=O)(=O)C(C#N)c2nc3ccccc3nc2N2CCN(C)CC2)cc1 (stereo not given)
 : 0%, -4%
[7] CCCCOc1ccc(NC(=O)CCC)c2cccnc12
 : -8%, 6%
[8] Cc1cc(SCC(=O)Nc2c(F)cccc2F)nc2ccccc12
 : 32%[activator], 15%
[9] C=C(C)COc1ccc2c(C)c(CCC(=O)NC3CC3)c(=O)oc2c1
 : -23%, 28%
[10] CCC(Sc1nc2cc3c(cc2c(=O)n1CCCC(=O)NCc1ccc(OC)cc1)OCO3)C(=O)NCCCOC (stereo not given)
 : 1%, -17%
[11] CC(Oc1ccc(C(C)C)cc1)C(N)=O (stereo not given)
 : 2%, 18%
[12] N#CCOc1ccc(NC(=O)c2n[nH]c(=O)c3ccccc23)cc1
 : -9%, 124%[activator]
[13] COC(=O)c1ccc([C@H]2Nc3ccc(S(=O)(=O)Nc4cccc(C)c4)cc3[C@H]3C=CC[C@H]32)cc1
 : 116%[activator], 7%
[14] Cc1cccc(NS(=O)(=O)c2ccc(C)c(C(=O)NCC(c3ccccc3)N(C)C)c2)c1 (stereo not given)
 : 100%[activator], 20%
[15] Clc1ccc2nc(-c3cccc(Br)c3)cn2c1
 : 8%, 130%[activator]
[16] Cc1nc(-c2ccc(Cl)cc2)sc1CCNC(=O)c1ccc(C(F)(F)F)cc1
 : -12%, -11%
[17] CCN(CC)/C(=N\S(=O)(=O)c1ccc(C)cc1C)c1ccccc1
 : 150%[activator], -5%
[18] COc1cc(/C=N/OCCOc2ccc(C#N)cc2)cc(Cl)c1OC
 : -2%[1.06 µM], -8%
[19] CCC(Oc1ccc(F)cc1)C(=O)Nc1cc(C(C)(C)C)on1 (stereo not given)
 : 12%, 69%[activator]
[20] CCc1cccc(NC(=O)Cn2ncc3c([nH]c4ccc(C)cc43)c2=O)c1
 : -8%, 10%

# The listing continues:
# Screens in order: 2A Renilla, 2A firefly
[21] Cc1ccc(Cn2ccnc2SCC(=O)Nc2ccccc2C(F)(F)F)cc1
 : 5%, -12%
[22] COc1ccccc1N1CCN(S(=O)(=O)c2c(C)sc3ncn(CC(=O)Nc4ccc(C)cc4Br)c(=O)c23)CC1
 : -6%, -13%
[23] Cc1ccc(NC(=O)CN(C)S(=O)(=O)c2cccc3cc(C)cnc23)cc1
 : 67%[activator], 3%
[24] CC(NC(=O)c1cc2ccccn2n1)c1ccccc1 (stereo not given)
 : -7%, 6%
[25] O=C(Oc1ccc2ccccc2c1)c1cc2ccccc2oc1=O
 : 10%, 11%
[26] COc1ccc(NC(C)=O)cc1NC(=O)/C=C/c1ccc2ccccc2n1
 : -30%, 115%[activator]
[27] COc1ccc(NC(=O)C(=O)NCc2ccc(C)cc2)c(OC)c1
 : -6%, -1%
[28] CN(C)c1nc(OCC#N)nc(N2CCOCC2)n1
 : 0%, 16%
[29] COc1cccc(-c2cc(C(=O)NCCc3cccs3)[nH]n2)c1
 : 17%, 108%[activator]
[30] Cc1ccc(O)c(NC(=O)c2cc(-c3ccc(F)cc3)on2)c1
 : 20%, 64%[activator]
[31] CN1CCN(c2oc(-c3ccccc3F)nc2C#N)CC1
 : 0%, 69%[activator]
[32] COC(=O)[C@H](Cc1ccccc1)NC(=O)[C@@H](N)CC(=O)O
 : -7%, -8%[11.5 µM]
[33] CCc1ccccc1NC(=O)c1sc(-n2nc(C)c(Cl)c2C)nc1C
 : -4%, 4%
[34] COc1cc(OC)c(Nc2c3c(nc4nc(-c5cccs5)nn24)CCCC3)cc1Cl
 : ?, 6%
[35] COc1ccc(NC(=O)c2sc3nc(C)c(C(=O)Nc4ccc(C)cc4C)c(-c4cccs4)c3c2N)cc1
 : -5%, 3%
[36] Cc1ccc(Nc2nc(COC(=O)c3ccc4c(c3)C(=O)N(C)C4=O)cs2)cc1
 : -7%, 48%[activator]
[37] CCN(CC)S(=O)(=O)c1ccc(S(=O)(=O)N2CCCC2c2cccn2C)cc1 (stereo not given)
 : 21%, 15%
[38] Cc1ccc(-c2cnc(CCC(=O)N(CCC#N)Cc3ccco3)o2)cc1
 : 13%, 35%[activator]
[39] Cc1cccc(NC(=O)CSc2nc(C)c(C)o2)c1C
 : 2%, 17%
[40] Cc1ccc2onc(CC(=O)N3CCN(c4ccccc4F)CC3)c2c1
 : -4%, -5%

# Some of the entries so far, as tab-separated lines:
item	smiles	2A Renilla	2A firefly
25	O=C(Oc1ccc2ccccc2c1)c1cc2ccccc2oc1=O	10%	11%
26	COc1ccc(NC(C)=O)cc1NC(=O)/C=C/c1ccc2ccccc2n1	-30%	115%[activator]

# (list continues)
# Screens in order: 2A Renilla, 2A firefly
[41] Cc1c(NC(=O)C2(c3ccccc3)CC2)cccc1C(=O)N1CCc2sccc2C1
 : 3%, -2%
[42] COc1ccc(C2Oc3nc(SC)nnc3-c3ccccc3N2C(C)=O)cc1 (stereo not given)
 : -12%, 4%
[43] Cc1c(Cl)cccc1NC(=O)CN1C(=O)COc2ccc(S(=O)(=O)N3CCCCCC3)cc21
 : -5%, -4%
[44] CC(=O)c1ccc(NC(=O)c2nc(-c3ccccc3)n(-c3ccccc3Cl)n2)cc1
 : 15%, -11%
[45] Cc1ccccc1OCc1ccc(-c2nc(C#N)c(N3CCC(C(N)=O)CC3)o2)o1
 : 0%&22%, 24%&-8%
[46] CCN(CC1CCOC1)C(=O)Cn1nc(C)c2ccccc2c1=O (stereo not given)
 : 2%, 11%
[47] CCOc1ccc(NS(=O)(=O)c2cccc(C(=O)Nc3ccc4oc(C)nc4c3)c2)cc1
 : 10%, ?
[48] CC(C)C(NC(=O)c1ccccc1I)c1ccc(F)cc1 (stereo not given)
 : -8%[1.06 µM], -2%
[49] COc1ccc(NC(=O)CSC2=Nc3ccccc3C3=NC(CCC(=O)NCc4ccc(F)cc4)C(=O)N23)cc1Cl (stereo not given)
 : 12%, -1%
[50] CCN(CC)CCOC(=O)c1ccc(NC(=O)c2nn(-c3ccc(C)cc3)c(=O)c3c2c2ccccc2n3C)cc1
 : -11%, -8%
[51] CCOC(=O)c1ccc(NC(=O)CSc2ncnc3c(-c4ccc(OC)cc4)c[nH]c23)cc1
 : -5%, 19%
[52] C=C(C)CN1CCN(c2nc3c(c(=O)[nH]c(=O)n3C)n2Cc2ccccc2F)CC1
 : -2%, 2%
[53] CCc1cc(=O)oc2cc(OCC(=O)Nc3cc(C)on3)ccc12
 : -2%, 0%
[54] COc1ccc(NC(=O)C(C(=O)Nc2ccc(OC)cc2)C23CC4CC(CC(C4)C2)C3)cc1
 : 1%, 4%
[55] C#CC(C)(CC)NC(=O)Cn1nnc(-c2ccc(OCc3c(F)cccc3Cl)cc2)n1 (stereo not given)
 : -2%, -16%
[56] C#CC(CC)(CC)NC(=O)C1CC(C)=C(C)CC1C(=O)O (stereo not given)
 : 4%, 2%
[57] COc1ccc2cc3c(N)nn(C(=O)c4ccc(OC)c(OC)c4)c3nc2c1
 : 89%[activator], 67%[activator]
[58] Cc1cc(C)n(CC(=O)Nc2ccc(C(=O)NCc3ccco3)cc2)c(=O)c1C#N
 : -2%, 0%
[59] Cc1ccc(NC(=O)C(C)Sc2ccc(C)cc2C)cc1 (stereo not given)
 : 13%, 13%
[60] COc1cc(NC(=O)Cn2c(C)cc3ccccc3c2=O)cc(OC)c1OC
 : -6%, -16%

# 3 structures already listed, arranged by formula weight, smallest number first.
# Screens in order: 2A Renilla, 2A firefly
[53] CCc1cc(=O)oc2cc(OCC(=O)Nc3cc(C)on3)ccc12
 : -2%, 0%
[46] CCN(CC1CCOC1)C(=O)Cn1nc(C)c2ccccc2c1=O (stereo not given)
 : 2%, 11%
[49] COc1ccc(NC(=O)CSC2=Nc3ccccc3C3=NC(CCC(=O)NCc4ccc(F)cc4)C(=O)N23)cc1Cl (stereo not given)
 : 12%, -1%

# The results go on.
# Screens in order: 2A Renilla, 2A firefly
[61] Cc1cc(C)c(OCC(=O)Nc2cccc(-c3nc4ncccc4o3)c2)c(Br)c1
 : 13%&-4%, 28%&41%
[62] CCc1cccc(NC(=O)Cn2c(=O)n(CC(=O)NCCc3ccccc3)c(=O)c3ccccc32)c1
 : -5%, -7%
[63] COc1ccc(CNS(=O)(=O)c2ccc(F)c(C(=O)Nc3c(C)cc(C)cc3C)c2)cc1
 : 16%, -11%
[64] COC(=O)CNC(=O)/C=C/c1ccc(C#N)cc1
 : -15%, -7%
[65] Cc1nn(CC(=O)NCc2ccc(F)cc2)c2ccccc12
 : -9%, 34%[activator]
[66] O=S(=O)(c1cccc(C(F)(F)F)c1)n1c(/C=C/c2ccccc2)nc2ccccc21
 : 3%, 11%
[67] O=C(NCCc1ccccc1)c1ccc2c(c1)N(Cc1ccccc1)C(=O)CS2=O (stereo not given)
 : -5%, 13%
[68] CCOc1c(Br)cc(/C=C2/NC(=O)NC2=O)cc1Br
 : 12%, 6%
[69] Cc1[nH]c2ccccc2c1C
 : -14%, 2%
[70] N#Cc1ccc(/C=C/C(=O)N(Cc2ccc(C(F)(F)F)cc2)C2CC2)cc1
 : -26%, 15%
[71] COc1cccc(C(=O)Nc2oc3ccc(Cl)cc3c(=O)c2-c2ccccc2)c1
 : -19%, 21%
[72] Cc1cc2oc(C(=O)Nc3ccc(S(=O)(=O)N4CCCCCC4)cc3)cc(=O)c2cc1C
 : -7%, -20%
[73] COc1ccc(C)cc1Nc1c2c(nc3nc(-c4cccs4)nn13)CCCC2
 : -15%, -16%
[74] COc1cccc2cc(C(=O)N3c4ccccc4CC3C)c(=O)oc12 (stereo not given)
 : 78%[activator], 22%
[75] O=C(Nc1ccccc1)Nc1nnc(SCC(=O)N2CCCCC2)s1
 : 5%, 5%
[76] CC1CCCCC1NC(=O)CS(=O)Cc1coc(-c2ccc(F)cc2)n1 (stereo not given)
 : 12%, 6%
[77] Cc1cccc(C(=O)Nc2ccc(-c3nc4ccccc4s3)cc2Cl)c1
 : -11%, 21%
[78] Cc1ccc2nc(/C(C#N)=C/c3ccc(-c4ccc(C)c(Cl)c4)o3)[nH]c2c1
 : -25%, 0%
[79] CC(C)(C)c1[nH]c2c(F)cccc2c1C=O
 : 10%, 41%[activator]
[80] O=C(Nc1c[nH]ccc1=O)c1cc(-c2ccccc2)nc2ccccc12
 : -7%, 9%

# One compound at a time (already shown). Values in the order: 2A Renilla	2A firefly
# `CCN(CC)/C(=N\S(=O)(=O)c1ccc(C)cc1C)c1ccccc1` is listed as 150%[activator]	-5%
# `O=C(Nc1c[nH]ccc1=O)c1cc(-c2ccccc2)nc2ccccc12` is listed as -7%	9%
# `COc1ccc(NC(=O)c2sc3nc(C)c(C(=O)Nc4ccc(C)cc4C)c(-c4cccs4)c3c2N)cc1` is listed as -5%	3%

# Continued.
# Screens in order: 2A Renilla, 2A firefly
[81] Cc1ccc(NC(=O)CCc2ncc(-c3ccccc3)o2)cc1
 : -4%, 10%
[82] Cc1ccc(-c2cc(C(=O)NCc3ccco3)c3ccccc3n2)s1
 : 39%[activator], 108%[activator]
[83] CCc1ccc(-c2nc3c(c(=O)[nH]c(=O)n3Cc3ccccc3)n2CC2CCCO2)cc1 (stereo not given)
 : -10%, 3%
[84] O=C(CN1CCC(C(=O)N2CCOCC2)CC1)N1CCN(c2ccccc2)CC1
 : -12%[1.06 µM], 39%[activator]
[85] COc1ccc(-c2nc3ccccc3o2)cc1NC(=O)COc1ccc(C)cc1
 : -4%, 0%
[86] C=CCNc1nc(C(=O)OCC(=O)NCC(=O)Nc2c(C)cccc2C)cs1
 : 7%, 18%
[87] Cc1ccc(CC(=O)N(C)CC(=O)Nc2ccccc2C(F)(F)F)cc1
 : 15%, 10%
[88] CC(=O)Nc1cccc(NC(=O)CSc2nccn2Cc2ccc3c(c2)OCO3)c1
 : -1%, -25%
